# VACV Venus inh: qHTS for Stage-Specific Inhibitors of Vaccinia Orthopoxvirus: Venus Reporter Primary qHTS; Vaccinia virus Venus reporter expression, fluorescence; Potency, µM (highest dose often 36.5 µM), for the others: at the top dose activity change, negative = inhibition, actives largely listed as inhibitors; 330,000 tested, 0.46% active; AID 720580, 2013; active means well fitted inhibition curve with a large enough effect; inconclusive means small, poorly fitted or top-dose-only effect; inactive means no such curve, though single readings can be large or run the other way; tested in A549 cells; note: nearly all actives have a fitted effect of over 30% in size; inactives centre near -10
# VACV mCherry inh: qHTS for Stage-Specific Inhibitors of Vaccinia Orthopoxvirus: mCherry Reporter Primary qHTS. Vaccinia virus mCherry reporter infection, fluorescence; about a quarter of the inactives have no number. Potency, µM (top dose mostly 36.5 µM), without a hit: top-dose activity change, negative = inhibition, usual class: inhibitors. 310,000 tested, 0.63% active. AID 720579, 2013; active = well fitted inhibition curve with a large enough effect; inconclusive = small, poorly fitted or top-dose-only effect; inactive = no such curve, though single readings can be large or run the other way; tested in A549 cells; note: nearly all actives have a fitted effect of over 35% in size; inactives centre near -10
# The depositor's hits bear a star; i = inactive; ? = inconclusive; nt = not tested or not shown; & = joins results of further samples; [ ] = remark or other dose. % is set by controls: 0 for no effect and ±100 for the full control effect; potency is the fitted concentration of half-maximal effect.
cpd | Structure | VACV Venus inh | VACV mCherry inh
1 | CCOC(=O)N1CCN(C(=O)CCCN2C(=O)CSc3nc(C)cc(C)c32)CC1 | -12% | nt
2 | COc1ccc(NC(=O)C2(C)Cc3c(-c4ccc5c(c4)OCO5)ccnc3O2)cc1OC (stereo not drawn) | -5% | 22%
3 | O=C1NC[C@@H](CCCCN2C[C@H](Cc3ccccc3)N(CCc3ccc(O)cc3)C(=O)C2=O)N(CC2CCCCC2)C1=O | -6% | 11%
4 | CCOc1ccc(C2/C(=C(/O)c3ccc(S(=O)(=O)N4CCCCC4)cc3)C(=O)C(=O)N2CCCOC)cc1OC (stereo not drawn) | -2% | i
5 | COc1ccccc1NC(=O)COC(=O)c1ccc2ccccc2n1 | -9% | i
6 | COc1ccccc1NC(C)C(=O)N/N=C/c1ccccc1OCc1cccc(Br)c1 (stereo not drawn) | -6% | -17%
7 | COc1ccc(-c2c(C#N)c(N)nc3c2CCCCCC3)cc1OC | -10% | -2%
8 | Cc1nc2c(ccc3nc(NC(=O)Cc4cccc5ccccc45)sc32)s1 | -17% | 9%
9 | COc1ccc(N2CCN(c3ncnc4c3cnn4-c3ccc(F)cc3)CC2)cc1 | -3% | -19%
10 | CCCN(CCC)S(=O)(=O)c1ccc(C(=O)NNc2nc(-c3ccccc3)c3cc(Br)ccc3n2)cc1 | -14% | i
11 | N/C(=N\OC(=O)CCC1CCCC1)c1ccccc1 | 0% | 1%
12 | O=C(Nc1ccc(F)cc1)OCCN1CCN(Cc2ccccc2)CCC1=O | -13% | -12%

# The list continues.
cpd | Structure | VACV Venus inh | VACV mCherry inh
13 | COC(=O)c1ccc(Nc2cc(C)nc3ccc(C)cc23)cc1 | ? | -14%
14 | CCCS(=O)(=O)C(=C(Nc1ccc(OC)cc1)Nc1ccc(OC)cc1)S(=O)(=O)CCC | -11% | i
15 | CSc1cccc(NC(=O)CN2C(=O)c3ccccc3S2(=O)=O)c1 | -8% | 7%
16 | Cc1cnc(SCc2ccccn2)nc1C1CCCN(C(=O)c2coc3c2C(=O)CCC3)C1 (stereo not drawn) | -20% | -24%
17 | CN(CC(=O)NC(=O)NC1CCCCC1)CC(=O)Nc1ccccc1C(F)(F)F | ? | -17%
18 | Cc1occc1-c1nnc(SCC(=O)N2CCN(c3ccc(F)cc3)CC2)n1C | -16% | -24%
19 | Cc1ccc(/C=C/S(=O)(=O)NCc2ccc(F)cc2)cc1 | -11% | -27%
20 | Cc1cc(C)cc(N(CC(=O)NC(C)(C)C)C(=O)CNC(=O)c2cccs2)c1 | -10% | -11%
21 | CCOc1ccc(S(=O)(=O)N(CC(=O)Nc2ccc(OC)cc2OC)c2ccccc2)cc1 | -4% | -6%
22 | Cc1ccc(/C=C/C(=O)Nc2ccc(Oc3ccccc3)cc2)o1 | ? | ?
23 | C/C(=N\N1CCN(C)CC1)c1c(O)[nH]c(=O)[nH]c1=O | -12% | i
24 | O=C(CC1C(=O)NCCN1C(=O)c1ccc([N+](=O)[O-])cc1)Nc1ccc(F)cc1 (stereo not drawn) | -7% | -29%

# (further entries)
cpd | Structure | VACV Venus inh | VACV mCherry inh
25 | CCN(CC)CCNC(=O)CSc1nc2nc(C)c(Cc3ccccc3)c(C)n2n1 | -13% | -4%
26 | CCOC(=O)C1=C(C)c2ccccc2N(S(=O)(=O)C(F)(F)F)C1C(=O)OCC (stereo not drawn) | 4% | -15%
27 | COc1ccccc1/C=C/C1C(C(=O)OCC(C)C)=C(C)N=C2SCCC(=O)N21 (stereo not drawn) | -16% | -23%
28 | CC(=O)Nc1ccc(S(=O)(=O)N2CCC(C(=O)NCCC(=O)Nc3ccccc3)CC2)cc1 | -20% | -1%
29 | CCCN1CCN(C(=O)c2oc3c(Cl)cccc3c2C)CC1 | -15% | -8%
30 | N#Cc1cccc(NC(=O)CN2CCCCCC2)c1 | 7% | 6%
31 | O=C(CSc1ccc(-c2ccccn2)nn1)Nc1ccc(F)cc1F | -4%&-15% | ?
32 | COC(=O)Cn1nnc2c(cnn2-c2ccccc2)c1=O | -15% | i
33 | COc1ccccc1CNC(=O)C1CCN(Cc2cc3ccccc3n2Cc2cccc(C)c2)CC1 | -10% | -14%
34 | COc1ccc(C(=O)NC2CCN(C(=O)Nc3ccccc3Cl)CC2)cc1 | -21% | -10%
35 | CC(OC(=O)[C@H](C)N=C1NS(=O)(=O)c2ccccc21)C(=O)Nc1ccc(F)c(F)c1F (stereo partly drawn) | -15% | i
36 | COc1ccc(C2(C#N)CCC(=O)N2c2ccccc2)cc1 (stereo not drawn) | -11% | -1%

# More entries follow.
cpd | Structure | VACV Venus inh | VACV mCherry inh
37 | C=CCNC(=O)C(=O)c1c(-c2ccccc2)[nH]c2ccccc12 | -5% | i
38 | O=C(Cn1c(=O)nc(-c2ccccc2)c2ccccc21)Nc1ccc(Cl)cc1F | -9% | -12%
39 | Cc1ccc(Nc2nc3nonc3nc2Nc2cccc(C(F)(F)F)c2)cc1Cl | 3.5µM* | 3.5µM*
40 | Cn1c(/C(C#N)=C(\O)c2cccc(F)c2)nc2ccccc21 | -24% | -29%
41 | O=C1NC[C@@H](CCCCN2CCN(CCC3CCCCC3)C(=O)C2=O)N(CC2CCCCC2)C1=O | 5% | 0%
42 | CN(CC(=O)N1CCOCC1)C(=O)CSc1nc2ccccc2s1 | -12% | i
43 | Cc1nc(SC(C)C(=O)Nc2ccccc2C)cc(-c2ccccc2)n1 (stereo not drawn) | -16% | -11%
44 | Cc1ccc(Nc2nc(N)nc(CSCCO)n2)cc1 | -5% | -24%
45 | CN1CCN(S(=O)(=O)c2cccc(C(=O)Nc3nc(-c4ccccc4)cs3)c2)CC1 | -25% | i
46 | COc1ccc(CN2CCN(C(=O)C3CCN(S(=O)(=O)c4cccs4)CC3)CC2)c(OC)c1OC | -13% | -8%
47 | C#CCNC(=O)C1=C[C@@H](c2ccc(C(F)(F)F)cc2)C[C@@H](OCc2ccc(CO)cc2)O1 | -20% | i
48 | CC1Cc2ccccc2N1S(=O)(=O)c1cccc(C(=O)Nc2cccnc2)c1 (stereo not drawn) | -18% | -7%

# Going on with the list:
cpd | Structure | VACV Venus inh | VACV mCherry inh
49 | Cc1ccc(C(=O)NC(C)CCc2ccccc2)cc1S(=O)(=O)N1CCOCC1 (stereo not drawn) | -14% | -25%
50 | COc1ccc(CCC(=O)N2c3ccccc3N=C(c3ccc(C(F)(F)F)cc3)C2C(=O)NC(C)C)cc1 (stereo not drawn) | -13% | -22%
51 | CCOC(=O)Cc1ccc(NC(=O)N(C(C)C)C2CCN(C(C)=O)CC2)cc1 | -3% | -2%
52 | CCOC(=O)N1CCN(c2ccc(S(=O)(=O)N3CCOCC3)cn2)CC1 | 0% | i
53 | COC(=O)C(O)(NC(=O)NC(C)=O)C(F)(F)F (stereo not drawn) | -8% | nt
54 | CN1CCN(C(=O)c2cc3nc(-c4ccccc4)cc(-c4ccccc4)n3n2)CC1 | -27% | nt
55 | COc1ccc(C)cc1NC(=O)c1nnn(Cc2cccc(F)c2)c1N | -8% | -15%
56 | CCC(Oc1ccccc1)C(=O)N1CCC(C(N)=O)CC1 (stereo not drawn) | -6% | -14%[1.46 µM]
57 | O=C(NCc1ccc2c(c1)CCN2C(=O)c1ccc(F)cc1)c1ccc(Br)o1 | -29% | ?
58 | CC(C)CCN1C(=O)c2ccc(C(=O)NCC3CCCO3)cc2C1=O (stereo not drawn) | -18% | nt
59 | O=C(O)c1cc(C2CC2)nc2ccccc12 | -11% | -19%
60 | CCN(CC)CCCNC(=O)C1CCN(S(C)(=O)=O)CC1 | 12% | -3%

# (cont.)
cpd | Structure | VACV Venus inh | VACV mCherry inh
61 | O=C(NC1CCCCCC1)C1c2ccccc2C(=O)N1Cc1ccc(F)cc1 (stereo not drawn) | 3% | -12%
62 | COCCCNC(=O)c1c(N)n(/N=C/c2cccs2)c2nc3ccccc3nc12 | -6% | -11%
63 | Cc1ccc2oc(-c3ccc(C)c(NC(=O)/C=C/c4ccc(Cl)cc4)c3)nc2c1 | -5% | 0%
64 | COc1cc(CCCN2CCNC[C@@H]2Cc2ccccc2)cc(OC)c1OC | 0% | -3%
65 | O=C(NCc1cccc(Cl)c1)c1cnc(N2CCCCC2)c2ccccc12 | -7% | -9%
66 | O=S(=O)(NCc1cc(-c2ccccc2)no1)c1ccccc1 | -2% | i
67 | Cc1ccc(OCC(=O)Nc2nnc(S(=O)(=O)N3CCc4ccccc43)s2)cc1 | -5% | -8%
68 | COc1ccc(CNC(=O)CSc2nnc(NC(=O)c3ccccc3F)s2)cc1 | 5% | 8%
69 | CC(C)NC(=O)C(c1ccc(F)cc1)N(C(=O)CCC(=O)Nc1ccccn1)c1ccccc1F (stereo not drawn) | -1% | 2%
70 | CCOC(=O)c1ccc(CNc2ncnc3nc[nH]c23)cc1 | -30% | -28%
71 | COc1ccc(CN(CC(=O)NCc2ccc(F)cc2)C(=O)CCC(=O)Nc2ccccn2)cc1 | -8% | -11%
72 | CCCCn1c(N)c(N(CC)C(=O)c2cc(OC)cc(OC)c2)c(=O)[nH]c1=O | -9% | i

# (continued)
cpd | Structure | VACV Venus inh | VACV mCherry inh
73 | COc1ccc(S(=O)(=O)Nc2cccc(S(=O)(=O)N3CCCC3)c2)cc1OC | -13% | -18%
74 | O=C(Nc1ccc(Br)cc1F)c1cc2nc(-c3ccco3)cc(C(F)(F)Cl)n2n1 | -7% | 0%
75 | CCOC(=O)C1CCCN(C(=O)c2cc(CN3C(=O)c4ccccc4C3=O)ccc2OC)C1 (stereo not drawn) | -5% | 0%
76 | Cc1cc(O)c2c(c1)C(=O)c1cc(O)cc(O)c1C2=O | 39%[activator] | 7%
77 | COc1cccc(CNC(=O)CN2CCCN(Cc3ccccc3)S2(=O)=O)c1 | -7% | -5%
78 | CCOC(=O)c1c(N)n(CCCOC(=O)c2ccco2)c2nc3ccccc3nc12 | 10µM* | ?
79 | CC(NC(=O)c1cccs1)c1ccc(Cl)cc1 (stereo not drawn) | 14% | 20%
80 | CCc1ccccc1N(CC(=O)Nc1cccc(N(C)S(C)(=O)=O)c1)S(C)(=O)=O | -13% | -11%
81 | CCCCC(=O)Nc1ccc(C(=O)Nc2ccc(S(=O)(=O)Nc3nccc(C)n3)cc2)cc1 | 2% | -7%
82 | COc1ccc(N2CC(C(=O)NCCc3c[nH]c4ccccc34)CC2=O)cc1 (stereo not drawn) | -16% | -9%
83 | CCc1nnc(N2CCN(c3ncnc4c3oc3ccccc34)CC2)s1 | -6% | -12%
84 | COc1ccc(OC)c(CCNC(=O)CCCn2c(=O)c3cccn3c3ccc(F)cc32)c1 | -5% | -17%

# Later entries.
cpd | Structure | VACV Venus inh | VACV mCherry inh
85 | COCC(=O)Nc1cccc(Br)c1 | -8% | -23%
86 | C=C1CCN([C@@H](C)C(=O)OCc2cccc(C)c2)S(=O)(=O)c2ccccc21 | -3% | i
87 | COc1ccccc1OCC(=O)NCC1CCCN(Cc2cnn(C)c2C)C1 (stereo not drawn) | -14% | -1%
88 | CC(NC(=O)/C=C/c1cnc2ccccc2n1)C12CC3CC(CC(C3)C1)C2 (stereo not drawn) | -19% | ?
89 | COc1ccc(OCC(=O)N2CCN(CCc3ccccn3)CC2)cc1 | -6% | -14%
90 | CC1(C)CC(=O)C2=C(C1)NC(=O)CC2c1ccc(F)cc1 (stereo not drawn) | ? | nt
91 | CCOC(=O)c1ccc(Nc2cc(C)nc(C)c2C(=O)OCC)cc1 | -1% | -14%
92 | N#CC1=C2C=Cc3ccccc3N2CCCC1=O | -2% | -9%
93 | O=C(c1cccc(Cl)c1)n1nc(-c2ccco2)nc1NCc1cccs1 | -4% | -5%
94 | CC(C)NC(=S)N/N=C/c1c[nH]c2ccccc12 | -23% | ?
95 | C=CCn1c(-c2cccc(OCC)c2)n[nH]c1=S | -18% | i
96 | COc1ccc(C(C)(O)c2nc(-c3ccc(OC)c(OC)c3)cs2)cc1 (stereo not drawn) | 0% | 14%

# More compounds follow.
cpd | Structure | VACV Venus inh | VACV mCherry inh
97 | CCOc1ccc(NC(=O)COc2ccc(N3CC(C(N)=O)CC3=O)cc2)cc1 (stereo not drawn) | -16% | -17%
98 | CCCCN1CC(COCc2ccccc2)Oc2ccccc2S1(=O)=O (stereo not drawn) | -17% | -6%
99 | COc1ccc(-c2cc(C(F)(F)F)nc(SCCC(=O)NCc3ccccc3)n2)cc1 | -3% | nt
100 | COc1cccc(NC(=O)CCC(=O)Nc2ccc3nc(N4CCOCC4)cc(C)c3c2)c1 | -8% | -5%
101 | Cc1c(C(=O)NCc2ccc(Cl)c(Cl)c2)sc(=O)n1Cc1cccc(F)c1 | -10% | i
102 | O=C(NC1CCCC1)C1CCC(=O)N1C1CCCCC1 (stereo not drawn) | -5% | ?
103 | O=C(CN1C(=O)C2C3C=CC(C3)C2C1=O)NCc1ccc2c(c1)OCO2 (stereo not drawn) | -2% | -7%
104 | C=CCSCC1Nc2cc(Cl)c(S(N)(=O)=O)cc2S(=O)(=O)N1 (stereo not drawn) | -15%&-11% | 0%
105 | Cc1cccc(OCC(=O)N(Cc2ccc(C(C)(C)C)cc2)Cc2ccco2)c1 | -12% | -5%
106 | CC(=O)c1ccc(OCCCC(=O)NCc2nnc3ccccn23)cc1 | -8% | -18%
107 | COc1ccc(CCNC(=O)Cn2c(=O)n(-c3ccc(F)cc3F)c(=O)c3sccc32)cc1OC | -9% | i
108 | O=C(COC(=O)Cc1n[nH]c(=O)c2ccccc12)NNC(=O)c1ccccc1 | -9% | -28%

# Assay outcomes deposited in PubChem BioAssay by National Center for Advancing Translational Sciences (NCATS).
